# Screens: PubChem BioAssay, PCMD
# Biofilm kill mix = mixtures killing C. albicans biofilm; AID 1242; inhibition, % at 7.6 µM; hit rate 0.02% among 120,000; C. albicans biofilm persisters + clotrimazole, fluorescence viability; primary screen in compound mixtures of four per well;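 active = inhibition above 30.3% in the primary screen of four-compound pools, then above 30% when the compound was retested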;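 note: compounds exposed to preformed 24 h biofilms for 48 h; the number belongs to the whole pool; some results filed as inactive read as strong as hits; inactives centre near 12; 0% = biofilm with clotrimazole alone and 100% = kill control; retested singly at about 60 µM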
#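 Assay system: C. albicans biofilms / Medium: RPMI/MOPS medium, pH 7.0 / Schedule: biofilm formation 24 h, compound exposure 48 h, 37 °C / Measured by: Alamar Blue fluorescence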
# * marks the source's active call; other numbers are inactive results. The list is partial (hit frequency here may not be typical).
compound	Biofilm kill mix
CC(OC(=O)CNC(=O)C12CC3CC(CC(C3)C1)C2)C(=O)Nc1ccc(S(N)(=O)=O)cc1 (centres undefined)	14.3
Cc1cccc(C(=O)N2CCC(Cc3ccccc3)CC2)c1[N+](=O)[O-]	17.7
CC(=O)c1sc(C(C)(C)C)cc1NC(=O)/C=C/C(=O)O	16.2
O=C(Nc1ncccc1O)c1c(O)c2ccccc2[nH]c1=O	17.6
C(=N\Nc1nc2ccccc2[nH]1)/c1c[nH]c2ccccc12	14.2
CCCn1c(=N)n(CC(O)c2ccc(C)cc2)c2ccccc21 (centres undefined)	11.7
O=C(Nc1ccc(Cl)cc1)N1CCSC1=NCc1ccccc1	15.1
CCOC(=O)c1c(CCl)nc2ccccc2c1-c1ccccc1	13.5
CC(C)NC(=O)Cn1cc(C(=O)C2CC2)c2ccccc21	14.9
O=C(O)COc1ccccc1/C=N/NC(=O)CSc1nnc(SCc2cccc3ccccc23)s1	23.4
N#Cc1ccccc1Cn1cc(C#N)c2ccccc21	18.1
CC(C)=N/N=C(\N)SCc1ccccc1	22.5
O=C(CSc1nnc2scc(-c3ccccc3)n12)NCc1ccco1	8.0
Nn1c(Cc2ccccc2)n[nH]c1=S	8.0
COc1ccc2c(c1)N(C(=O)CN1C(=O)C3CCCCC3C1=O)C(C)(C)C=C2C (centres undefined)	7.8
CCOC(=O)N1CCC(=NNc2ccnc3cc(Cl)ccc23)CC1	22.4
Cn1c(CN2CCOCC2)nnc1SCc1cccc(F)c1	6.4
COC(=O)[C@H](CC(C)C)NC(=O)Nc1cccc(Br)c1	6.9
CCCCCCCCNC(=O)CC(NS(=O)(=O)c1ccc(NC(C)=O)cc1)C(C)C (centres undefined)	9.2
CCCCCC(=O)NNC1CC(=O)N(c2cccc(OCC)c2)C1=O (centres undefined)	5.5
CCCn1cc(CN2CCC(Cc3cccc(F)c3)(C(=O)OCC)CC2)c(C)n1	26.1
O=C(NNC1CC(=O)N(c2ccccc2)C1=O)c1ccccc1Cl (centres undefined)	14.5
CCOC(=O)C1=C(c2ccccc2)NC(SC)=C(C#N)C1c1cccnc1 (centres undefined)	2.3
CC(NCc1cccc(S(=O)(=O)N(C)C)c1)c1ccc(F)cc1 (centres undefined)	17.7
O=S(=O)(c1cccc(NC(=S)NCc2ccco2)c1)N1CCOCC1	8.3
COc1ccc(-n2c(C)nc3sc4c(c3c2=O)CCC4)cc1	23.7
COc1ccc(C(=O)NCc2cc(C)nc3ccccc23)cc1OC	13.8
COc1ccccc1NC(=S)N/N=C1\CC(C)(C)Oc2ccc(O)cc21	13.6
O=C(NC(=S)Nc1c(F)cc(F)cc1Br)c1ccc2c(c1)OCCO2	5.6
Cc1cccc(NC(=S)/N=C(\N)Nc2nc(C)c3ccccc3n2)c1	-15.2
CN1C(=O)C(Cl)(Cl)C(=O)c2ccccc21	16.6
Oc1ccc2ccccc2c1Br	-1.0
O=C(N/N=C/c1sc(N2CCOCC2)nc1-c1ccccc1)c1ccccc1F	11.4
O=C(c1ccc(Br)o1)N1CCCc2ccccc21	11.7
Cc1ccc(NC(=O)CN(C)Cc2nc3c(Br)cc(Br)cc3c(=O)[nH]2)cc1	11.2
CCOC(=O)c1sc(=S)n(CC)c1NC(=O)c1ccccc1	28.2
CCOc1cc(/C=N/N2CCOCC2)ccc1OCc1ccc(C(=O)OC)o1	-2.1
Cc1cc(C)n2c(SCC(=O)NC3CCCCC3C)nnc2n1 (centres undefined)	13.7
CCNC(=S)Nc1scc(-c2ccccc2)c1C(=O)OCC	8.0
Cc1occc1C(=O)N=Nc1c(O)[nH]c2ccc(Br)cc12	8.2
O=C(NCc1ccccc1Cl)c1ccc(-c2ccccc2)cc1	14.1
Cc1[nH]c2ccccc2c1Cc1n[nH]c(=S)n1C	15.7
CCCCCN1CSC(=S)N(Cc2ccccc2)C1	12.4
Cc1cc(C(=O)COc2ccccc2[N+](=O)[O-])c(C)n1-c1cccc(S(=O)(=O)N2CCOCC2)c1	3.9
Cc1nn(CC(=O)N2N=C(C(F)F)CC2(O)C(F)F)c(C)c1[N+](=O)[O-] (centres undefined)	18.3
NC(=O)c1cnn2c(-c3cccc(C(F)(F)F)c3)ccnc12	16.6
CCOC(=O)c1c(C)n(C)c2cc(Br)c(OC)cc12	23.2
C(=N\Nc1nc2ccccc2[nH]1)/c1ccncc1	18.3
Cc1ccccc1NCC(=O)N/N=C/c1c[nH]c2ccccc12	23.9
NC(=O)CN1CCN(S(=O)(=O)c2ccc(Cl)cc2)CC1	15.0
O=C1CN(C(=S)Nc2ccc(OC(F)F)cc2)CCN1	-10.5
CCOC(=O)c1c(C)[nH]c(C)c1C(=O)COC(=O)c1ccc(OC)cc1	12.7
CCOc1ccc(NC(=O)COC(=O)c2c(OC)cccc2OC)cc1	10.8
Cc1cccc(N(CC(N)=O)C2SC(=O)NC2=O)c1 (centres undefined)	12.7
O=C(CN1CCCC1)NCC(=O)Nc1ccc(F)cc1	1.9
CCO[C@H]1OC(C(=O)N2CCOCC2)=C[C@@H](C2CC2)[C@@H]1CCCO	19.5
CC(=O)N1CC[n+]2c(-c3ccc(Cl)cc3Cl)csc21	7.7
O=c1[nH]cc(N2CCCCCC2)c(=O)[nH]1	19.6
COC(=O)C1CCN(Cc2cn(-c3ccccc3)nc2-c2ccc3c(c2)OCO3)CC1	7.0
Cc1ccc2[nH]c3c(c2c1)CCCC3C(N)=O (centres undefined)	10.3

# (cont.)
compound	Biofilm kill mix
CCCCC(=O)Nc1cccc(NC(=O)c2cccnc2Cl)c1	11.4
CC(C)(C)C1(O)CC(C(F)(F)F)=NN1C(=O)Cc1ccc([N+](=O)[O-])cc1 (centres undefined)	29.5
CC(C)CNC(=O)c1cccc(NC(=O)CCc2ccccc2)c1	11.5
Cc1ccccc1OCCC(=O)Nc1ccc(F)c(Cl)c1	10.6
CCn1c(O)c(N=NC(=O)Cc2csc(N3CCOCC3)n2)c2ccccc21	17.1
Cc1coc2cc3oc(=O)cc(C)c3cc12	-1.0
COc1ccc(CCNC(=O)c2ccc(CS(=O)(=O)c3ccc(Br)cc3)o2)cc1OC	16.4
Cc1ccc(C2(C)NC(=O)N(CC(=O)c3ccc(Cl)s3)C2=O)cc1 (centres undefined)	12.8
COc1ccc2c(c1)CCc1c(C(=O)N(C)c3ccccc3)noc1-2	16.3
CCCCOC(=O)CCc1c(C)n[nH]c1C	10.3
Cc1ccc(NC(=O)CN2C(=O)/C(=C3\SC(=S)N(C4CCS(=O)(=O)C4)C3=O)c3ccccc32)cc1 (centres undefined)	14.4
Cc1noc(NS(=O)(=O)c2ccc(N/C=C/C(=O)c3ccc(F)cc3)cc2)c1C	14.9
CC(C)(C)c1ccc(Cn2c(=N)n(CC(O)c3ccco3)c3ccccc32)cc1 (centres undefined)	1.9
O=C(O)c1ccc(N2C(=O)/C(=C\c3ccccc3)N=C2c2ccccc2)cc1	16.3
NNC(=O)c1cncc(Br)c1	28.9
O=S(=O)(c1ccc(Cl)c(NC(=S)N/N=C/c2c(F)cccc2F)c1)N1CCOCC1	20.5
Cc1cc(OCC(=O)NCc2ccncc2)ccc1Cl	22.2
CC(=O)OC1C2CCC1C([N+]1(C)CCCCC1)CC2 (centres undefined)	13.9
Cc1ccccc1C(=O)Nc1ccc(O)c2c(=O)cc(-c3ccccc3Cl)oc12	12.6
CN(C)c1ccc(/C=N\NC(=S)SCN2C(=O)C3CCC(C)(C2=O)C3(C)C)cc1 (centres undefined)	12.6
O=C(Nc1cccnc1)c1ccc(-c2ccccc2)cc1	12.2
O=C1OCC2=C1C(c1ccccc1)CC(=O)N2c1cccc(F)c1 (centres undefined)	10.2
COc1ccc(NS(=O)(=O)c2cc(NC(=O)c3ccc(C)s3)ccc2N2CCOCC2)cc1	5.9
COc1ccc(N2CCN(c3nc4ccccn4c(=O)c3C=O)CC2)cc1	19.6
CCC(=O)N1CCN(c2ccc(Cl)cc2NC(=O)c2cccc([N+](=O)[O-])c2)CC1	15.1
COc1ccc(/C=N/NC(=O)c2ccc(O)cc2)cc1CN1CCCc2ccccc21	18.6
COc1ccc(F)c(-c2nc(CN3CCC(c4ccccc4)CC3)c(C)o2)c1	14.6
Cc1ccc(CSC(Nc2ccc(F)cc2)=C(C#N)C#N)cc1	12.2
O=C(CSc1nc(O)c(-c2ccccc2)c(=O)[nH]1)N1CCOCC1	5.8
Nc1ccc(S(=O)(=O)Nc2ccccn2)cc1	-5.8
FC(F)Oc1ccc(NC(=S)NCC2COc3ccccc3O2)cc1 (centres undefined)	13.3
COc1ccccc1C(=O)NNC(=O)c1cccc([N+](=O)[O-])c1	15.4
Cc1[nH]n(C(N)=S)c(=O)c1N=Nc1cc(-c2ccc(Br)cc2)[nH]n1	7.1
CCCn1c(N)c(NCCN2CCOCC2)c(=O)n(CC(=O)NCc2ccccc2)c1=O	1.4
O=C(CSc1nn(-c2ccc(F)cc2)c(=S)s1)NC1CCS(=O)(=O)C1 (centres undefined)	16.7
CCN1CCN(CCC(=O)Nc2ccc(Br)cc2)CC1	13.6
CCCCCc1c(O)nc(SCCN(CC)CC)[nH]c1=O	8.8
COc1ccc2c(c1)O[C@@H](c1cccc(C(F)(F)F)c1)[C@H](OC(=O)Nc1ccc(OC(F)F)cc1)C2=O	12.5
CCOC(=O)C1=C(c2ccccc2)NC(=S)NC1c1ccc(Cl)c([N+](=O)[O-])c1 (centres undefined)	12.1
Cc1ccc2nc(-c3ccc(NC(=O)CCN4C(=O)c5ccccc5C4=O)cc3)sc2c1	15.1
COc1ccc(Br)cc1S(=O)(=O)N1CC(C)OC(C)C1 (centres undefined)	11.0
COc1ccc(/C=C/c2nc3cc(-c4ccccc4)ccc3o2)cc1O	9.3
O=C(NCc1cccnc1)C1CCC(CNS(=O)(=O)c2ccc(Cl)cc2)CC1 (centres undefined)	5.7
Cc1csc(NC(=O)c2cc(-c3ccncc3)nc3ccccc23)n1	7.2
CCN1CCN(c2nc(Nc3ccc(OC)cc3)nc(N)c2[N+](=O)[O-])CC1	6.5
CCCc1nc2ccccc2c(=O)n1-c1ccc(C(=O)OCC)cc1	11.8
CCOC(=O)C1C(=O)C=C(c2ccc(C)cc2)CC1c1cccc([N+](=O)[O-])c1 (centres undefined)	10.8
CN(c1ccccc1)S(=O)(=O)c1cccc(C(=O)Nc2nn[nH]n2)c1	19.1
O=C(COc1cc(Cl)c(Cl)cc1Cl)NC(=O)Nc1ccc2c(c1)OCCO2	10.2
O=c1c2ccccc2nc(-c2ccc(F)cc2)n1NCc1ccccc1O	19.2
CC1CCCCC1NC(=O)COC(=O)c1ccc2ccccc2n1 (centres undefined)	9.1
O=C(C(=O)N1CC=C(c2ccccc2)CC1)c1c[nH]c2ccccc12	7.9
COc1ccc(N(CC(=O)Nc2cccc([N+](=O)[O-])c2C)S(C)(=O)=O)cc1OC	13.1
CCOC(=O)c1c(NC(=O)/C=C\C(=O)O)sc(C)c1-c1ccccc1	7.1
Cc1cc(S(=O)(=O)Nc2c(C)nc3nc[nH]n3c2=O)ccc1F	-4.1
CCCC(C)C(=O)Nc1ccc(S(N)(=O)=O)cc1 (centres undefined)	-12.1
COc1cccc(Nc2nnc(SCN3C(=O)c4ccccc4C3=O)s2)c1	8.7
O=C(O)[C@@H]1CCCN1C(=O)c1ccco1	14.2
CCS(=O)(=O)Nc1cc(OC)c(OC)cc1Cc1nccc2cc(OC)c(OC)cc12	17.5
COC(=O)C1SCC2C(=O)N(Cc3ccc(Cl)cc3)CC(=O)N21 (centres undefined)	14.2

# Reprinted from the part before: 4 entries; new compounds follow.
compound	Biofilm kill mix
COc1cccc(Nc2nnc(SCN3C(=O)c4ccccc4C3=O)s2)c1	8.7
O=C(O)[C@@H]1CCCN1C(=O)c1ccco1	14.2
CCS(=O)(=O)Nc1cc(OC)c(OC)cc1Cc1nccc2cc(OC)c(OC)cc12	17.5
COC(=O)C1SCC2C(=O)N(Cc3ccc(Cl)cc3)CC(=O)N21 (centres undefined)	14.2
CC1=[N+]([O-])C(C)(C)C(c2ccc(Br)cc2)=[N+]1[O-]	8.3
NC1=NC(=O)/C(=C/c2cn(CCC(=O)O)nc2-c2ccc(F)cc2)S1	-9.3
CC(=O)Nc1cccc(-c2csc(Nc3ccc(C)cn3)n2)c1	19.2
CCS(=O)(=O)N1Cc2ccccc2CC1C(=O)Nc1nc2ccc(F)cc2s1 (centres undefined)	-11.2
CCCCc1nc(N)c(C#N)c(-c2ccco2)c1CCC	17.5
CC(C)Cc1csc(NC(=O)c2ccccc2Cl)c1C(=O)O	20.4
COc1ccc(S(=O)(=O)N2CCCCC2)cc1NC(=O)CN(C)C1CCCCC1	7.1
Cc1cc(C(=O)CSc2ncccn2)c(C)n1-c1cccc(F)c1	8.8
CCOC(=O)c1nc(C)sc1-c1ccnn1S(=O)(=O)c1ccc(Cl)cc1Cl	2.9
O=C(/C=C/c1ccccc1)NC(=S)NNC(=O)Cc1cccs1	17.9
CCS(=O)(=O)N1Cc2ccccc2CC1C(=O)Nc1nnc(C2CC2)s1 (centres undefined)	10.9
Nc1nc(-c2ccc3c(c2)CCC(=O)N3)cs1	12.9
CCOC(=O)C(=NCCCN(C)C)NNc1cc(C(F)(F)F)ccc1Cl	23.2
Cc1ccc(NC(=O)Cn2sc3nc(C)cc(C)c3c2=O)c(Cl)c1	23.4
